Source: PubChem
UCH37 DUB inh: blocks the human deubiquitinase UCH37; inhibition, % (concentration not given with the values); Q9Y5K5; AID 588478; hit rate 0.33% among 330,000; purified proteasome/UCH37, Ub-AMC cleavage fluorescence;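 active means mean of two replicates above 20%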;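 further: 0% = compound-free wells with enzyme and 100% = wells lacking proteasome; stock transfer was 100 nL into about 20 µL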
Target sequence (Q9Y5K5 whole entry, looked up): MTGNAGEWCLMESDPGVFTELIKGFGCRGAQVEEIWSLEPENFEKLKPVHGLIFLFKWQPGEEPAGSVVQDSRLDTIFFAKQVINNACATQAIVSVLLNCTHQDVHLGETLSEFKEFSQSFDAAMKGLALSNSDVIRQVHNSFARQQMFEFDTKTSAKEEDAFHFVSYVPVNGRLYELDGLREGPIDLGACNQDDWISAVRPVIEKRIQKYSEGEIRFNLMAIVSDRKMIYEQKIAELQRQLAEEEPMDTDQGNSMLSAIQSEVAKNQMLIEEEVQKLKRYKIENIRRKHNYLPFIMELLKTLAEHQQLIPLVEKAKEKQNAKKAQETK
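Material: Human UCH37 enzyme supplied as purified proteasome complex | Schedule: 30 min preincubation with enzyme, 25 min cleavage at room temperature | Detection: AMC fluorescence 355/460 nm | Measure: % inhibition of Ub-AMC cleavage fluorescence | Controls: Wells without proteasome as full block, compound-free enzyme plus substrate as uninhibited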
RanGTP-Impb inh: inhibitors of RanGTP-importin-beta interaction, primary screen, biochemical, FRET, CFP-Ran, YFP-importin-beta, homogeneous | cell-free CFP-Ran/YFP-importin-beta FRET ratio | inhibition, % (no concentration beside the values) | hit rate 1.1% among 300,000;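 active means most replicates above 15%; inconclusive means exactly half above 15%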;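 further: 0% = DMSO wells and 100% = Ran loaded with GDP instead of GTP; wells of about 40 µL received 100 nL stock; the first replicate is given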
E coli growth: inhibitors of Escherichia coli growth; hit rate 0.21% among 330,000; OD600 absorbance (concentration not given with the values); OD600, 23 h; active compounds read low;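 active means OD600 absorbance below the run mean of sample wells minus 3.6 SD, in any replicate, cut at about 0.56 in these data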;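 further: stock transfer was 300 nL into about 60 µL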
HNF4A DNA FP: change in binding of human HNF4 alpha to DNA | HNF4a-FITC DNA binding, fluorescence polarization, 1 h | P41235 | activity change, % at 10 µM | AID 1224865 | hit rate 0.3% among 360,000; in the data active means activity change above about 30%, passing the limit was not always enough;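 further: controls were the assay level and a saturating level of protein; the project sought stronger binding though the title names inhibitors; some compounds called inactive have numbers as strong as hits; positive values seem to mean higher polarization but the record does not say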
Target sequence (P41235 whole entry, looked up): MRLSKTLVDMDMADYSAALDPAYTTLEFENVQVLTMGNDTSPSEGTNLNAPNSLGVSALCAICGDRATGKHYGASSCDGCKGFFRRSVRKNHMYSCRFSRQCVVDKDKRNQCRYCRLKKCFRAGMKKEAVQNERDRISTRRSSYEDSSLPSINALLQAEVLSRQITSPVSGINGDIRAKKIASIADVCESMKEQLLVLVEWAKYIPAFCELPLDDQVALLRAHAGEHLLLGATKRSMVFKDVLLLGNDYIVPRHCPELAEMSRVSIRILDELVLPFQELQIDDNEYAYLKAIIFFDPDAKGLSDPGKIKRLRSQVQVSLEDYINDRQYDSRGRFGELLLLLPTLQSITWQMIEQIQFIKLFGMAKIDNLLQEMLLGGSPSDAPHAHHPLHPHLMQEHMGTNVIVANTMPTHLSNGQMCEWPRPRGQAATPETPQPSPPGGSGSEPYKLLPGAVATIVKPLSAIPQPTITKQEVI
FGF22 binding: shifts melting point of recombinant human FGF22. hit rate 1.5% among 340,000. AID 651658. recombinant FGF22 thermal shift, SYPRO orange fluorescence; percent of sucrose octasulfate shift, DMSO zero. calls only at 9.99 µM;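 active means melting point raised past a set limit in the mean and every replicate; inconclusive means no clear call; three in four hits are not shown here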
Target sequence (Q9HCT0 whole entry, looked up): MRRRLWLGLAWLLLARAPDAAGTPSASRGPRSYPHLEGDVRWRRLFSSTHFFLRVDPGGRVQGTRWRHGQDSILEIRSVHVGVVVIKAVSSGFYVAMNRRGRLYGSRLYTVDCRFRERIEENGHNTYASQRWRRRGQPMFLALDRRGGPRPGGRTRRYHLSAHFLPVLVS
AF4-AF9 inh: blocks AF4 peptide binding to human AF9. P42568. AlphaScreen, biotin-AF4 peptide binding to FLAG-AF9. inhibition, % at 10 µM. hit rate 0.47% among 350,000;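 active means every replicate reaching a set inhibition limit, whatever the replicate mean, cut at about 25% in these data; inconclusive means mean inhibition reaches that limit but some replicates miss it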;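 further: 0% = plate neutral control median and 100% = total signal loss; the record names both 10 and 1 µM as test concentration; the first replicate is given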
Vif A3G: HIV-1 Vif–A3G interaction blockers – biochemical, TR-FRET, GST-Vif 1-94, biotin-A3G peptide, dose response retest, primary screen (AID 1117319) | TR-FRET GST-Vif / biotin-A3G peptide binding; higher % means a stronger effect; test concentration not given here; strong numbers were not always called active | hit rate 0.57% among 260,000 | inhibition, %, or IC50 in µM where a hit was titrated;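 active means above the screen mean plus three standard deviations and confirmed in dose response; inconclusive means results disagree or hit not tested in dose response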;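 further: Vif residues 1-94 fused to GST binding biotinylated APOBEC3G peptide 110-148; 0% = full assay without inhibitor and 100% = GST in place of GST-Vif; retest series ran down from 100 µM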
* = called active by the depositor; i = inactive; ? = inconclusive; . = not tested or not shown; & = joins results of further samples.

The opening 3 records as a preview:
SMILES	UCH37 DUB inh	RanGTP-Impb inh	E coli growth	HNF4A DNA FP	FGF22 binding	AF4-AF9 inh	Vif A3G
C=CCNC(=O)/C(C#N)=C/c1cn(-c2ccccc2)nc1-c1cccs1	-254	0.8	.	-2.3	.	.	-27%
N#C/C(=C\c1cccs1)C(=O)Nc1nccs1	6.5	3.4	.	-1.6	i	2.6	21%
Cc1ccc(S(=O)(=O)N2CCC(C(N)=O)CC2)cc1C(=O)NC1CCCCC1	2.3	6.2	0.68	-1.5	i	-27	2%

The listing, previewed entries included:
SMILES	UCH37 DUB inh	RanGTP-Impb inh	E coli growth	HNF4A DNA FP	FGF22 binding	AF4-AF9 inh	Vif A3G
C=CCNC(=O)/C(C#N)=C/c1cn(-c2ccccc2)nc1-c1cccs1	-254	0.8	.	-2.3	.	.	-27%
N#C/C(=C\c1cccs1)C(=O)Nc1nccs1	6.5	3.4	.	-1.6	i	2.6	21%
Cc1ccc(S(=O)(=O)N2CCC(C(N)=O)CC2)cc1C(=O)NC1CCCCC1	2.3	6.2	0.68	-1.5	i	-27	2%
CCC(C)(C)NC(=O)CN(Cc1ccc2c(c1)OCO2)C(=O)CCC(=O)Nc1ccccn1	1.4	5.7	0.74	1.6	.	.	28%&-5%
O=C(CSc1n[nH]c(-c2ccncc2)n1)Nc1ccccc1C(F)(F)F	0.2	-1.4	0.67	-2.9	i	2.7	.
Cc1ccc(NC(=O)C2C(=O)N(CCO)C3(C)CC2c2ccccc2O3)cc1 (stereo unspecified)	-0.7	2.5	0.69	8.8	.	.	?
O=C(O)c1cccc(S(=O)(=O)NCc2cccs2)c1	0.6	-0.8	0.7	-1.5	.	.	1%
c1ccc(COn2c(-c3ccccc3)nc3c2CCc2nonc2-3)cc1	1.4	3.2	0.74	4.0	.	.	-7%
Cc1ccc2nc(-c3ccc(O)cc3)oc2c1	.	0.0	.	-1.8	i	-1.4	-1%
N#Cc1nc(-c2cccc3ccccc23)oc1NCCN1CCOCC1	i	.	0.66	-0.9	i	5.1	2%
O=C(NC1CC1)c1ccc(-c2nc3ccccc3s2)s1	-15	1.1	0.72	2.6	.	.	31%
Cc1ccc(N2C(=O)C3CCCN3C2=S)c(C)c1 (stereo unspecified)	3.0	.	0.68	0.9	i	-2.4	0%
CC1=C(C(=O)N(C(C)C)C(C)C)CC(CC(=O)NC(c2ccccc2)c2ccccc2)C(=O)N1CCCN1CCCC1=O (stereo unspecified)	.	.	.	4.0	i	0.0	.
CCCN1C(=O)/C(=C\c2ccncc2)SC1=Nc1ccccc1	-23	-3.3	0.67	-0.7	.	.	.
CCCn1c(SCC(=O)Nc2ccc(OCC)cc2)nnc1C(C)C	0.9	2.3	0.69	-2.6	.	.	3%
O=C(Cc1ccccc1)NCCc1cn2ccsc2n1	1.5	-1.6	0.76	1.7	i	-5.5	-6%
O=C(CN(C(=O)Cn1nnc(-c2ccc(F)cc2)n1)c1ccc(F)cc1)NC1CCCC1	1.5	2.9	0.67	-2.1	i	-12	-4%
O=C1C=C(c2cc(C(F)(F)F)cc(C(F)(F)F)c2)C[C@@H](c2ccc(Cl)cc2)C1	1.3	.	.	-0.4	i	2.7	.
O=C(COc1ccccc1)N1CCN=C1SCc1cccnc1	9.0	-2.8	0.73	-0.9	.	.	-1%
CCn1c(SCC(=O)Nc2ccc(N3CCOCC3)cc2)nnc1C1CC1	4.8	.	0.66	1.2	i	1.8	1%

The closing 4 records of the section before are carried over, then new ones follow:
SMILES	UCH37 DUB inh	RanGTP-Impb inh	E coli growth	HNF4A DNA FP	FGF22 binding	AF4-AF9 inh	Vif A3G
O=C(CN(C(=O)Cn1nnc(-c2ccc(F)cc2)n1)c1ccc(F)cc1)NC1CCCC1	1.5	2.9	0.67	-2.1	i	-12	-4%
O=C1C=C(c2cc(C(F)(F)F)cc(C(F)(F)F)c2)C[C@@H](c2ccc(Cl)cc2)C1	1.3	.	.	-0.4	i	2.7	.
O=C(COc1ccccc1)N1CCN=C1SCc1cccnc1	9.0	-2.8	0.73	-0.9	.	.	-1%
CCn1c(SCC(=O)Nc2ccc(N3CCOCC3)cc2)nnc1C1CC1	4.8	.	0.66	1.2	i	1.8	1%
CCC1(c2ccccc2)NC(=O)N(CC(=O)NNC(=O)COc2ccc(Cl)cc2C)C1=O (stereo unspecified)	1.2	.	0.66	0.3	i	-0.5	-4%
CCOC(=O)C1(P(=O)(c2ccc(Cl)cc2)c2ccc(Cl)cc2)CCC1	3.4	-0.9	0.69	2.8	.	.	1%
S=c1[nH]nc(COc2ccccc2)n1/N=C/c1ccc(Br)s1	.	-2.5	.	0.7	.	.	-1%
Cc1ccc(OCc2nc(-c3ccc(-n4cccc4)cc3)no2)cc1C	1.2	-1.0	0.72	-0.6	i	38*	0%
O=C(CCCCC(=O)NC1CCCC1)NC1CCCC1	4.8	0.0	0.61	-3.1	.	1.2	12%
CC12CCC(C(=O)NCc3ccco3)(OC1=O)C2(C)C (stereo unspecified)	-2.3	-0.4	0.67	-0.2	i	8.1	?
Cc1cc(C)c(-n2[nH]nnc2=S)c(C)c1	1.8	5.7	0.68	-0.9	.	-7.0	14%
CCOc1ccc(C(=O)Nc2ccccc2CC)cc1[N+](=O)[O-]	3.9	0.9	0.66	4.6	i	9.7	.
CCN(CC(=O)Nc1c(F)cccc1F)C(=O)c1ccccc1F	0.8	?	0.65	4.7	i	0.5	-13%
COc1ccc(C(=O)NNC(=O)c2ccc(C(C)(C)C)cc2)cc1	0.7	-1.0	0.69	-1.1	i	-0.5	-5%
CCN(CCNC(=O)C1CCCN(c2ncnc3c2nc2n3CCCCC2)C1)Cc1ccccc1 (stereo unspecified)	-0.5	-0.1	0.73	-0.9	i	-1.2	.
N#Cc1cc(NC2CCCC2)c([N+](=O)[O-])cc1C#N	-14	0.0	0.67	-1.5	i	-25	-2%
OC(CNCc1ccc2c(c1)OCO2)COc1ccccc1 (stereo unspecified)	3.4	2.5	0.67	7.1	i	-3.4	3%
CCCNC(=O)c1cnc(-c2ccccc2)nc1-c1ccccc1	3.1	-3.1	0.72	-3.1	i	0.7	-7%
CCN1CCN(c2ccc(N3CCN(C(=O)c4ccc(Br)o4)CC3)nn2)CC1	-98	0.5	0.64	-1.9	i	-13	-3%
O=C(c1ccco1)N1CCN(C(=S)NCc2ccc(F)cc2)CC1	3.6	-4.5	0.72	-1.2	i	-1.0	.
CCOc1ccc(CNC(=O)CN2C(=O)CSc3ccc(S(=O)(=O)N4CCOCC4)cc32)cc1OC	2.5	2.6	0.69	0.6	i	0.2	-2%
Nc1c(-c2ccccc2)cnc2ncnn12	1.0	-3.0	0.71	2.3	.	.	0%
Cc1cc(F)ccc1NC(=O)C1CCCO1 (stereo unspecified)	-1.0	1.5	0.68	-2.4	i	-3.7	-6%
CCN(C(=O)Nc1ccccc1OC)c1c(N)n(Cc2ccccc2)c(=O)[nH]c1=O	.	4.4	.	1.5	.	.	-2%
C=CCON/C(CCC)=C1\C(=O)CC(C)(C)CC1=NC	1.3	1.1	0.71	2.9	i	-2.4	2%
CCOC(=O)C1=CN(Cc2cccc(F)c2)S(=O)(=O)N(CC)C1c1ccc(Br)cc1F (stereo unspecified)	0.8	.	0.72	-0.2	i	-8.1	-7%
Cc1cccc(C(=O)OCC(=O)NC(=O)c2ccccc2)c1O	-39	4.8	0.7	1.9	i	2.3	6%
COc1ccc(C(C(=O)NC2CCCC2)N(Cc2cccs2)C(=O)c2ccn[nH]2)cc1OC (stereo unspecified)	1.3	?	0.64	0.1	i	1.0	4%
Cn1cc(C(=O)c2ccccc2)cc1-c1nc2ccccc2n1C	-3.3	1.0	0.67	-2.6	.	.	-7%
CCCN(Cc1nnc(-c2ccccc2Cl)o1)C(=O)c1cc(S(=O)(=O)N2CCOCC2)ccc1F	4.3	0.8	0.7	7.8	i	-1.5	-13%
O=C(COC(=O)c1c2c(nc3ccccc13)CCCC2)Nc1ccc2c(c1)OCO2	5.3	1.7	0.7	-1.8	.	.	7%
COC(C(=O)Nc1ccnn1C1CCN(C(=O)c2ccc(C)cc2)CC1)c1ccccc1 (stereo unspecified)	4.2	-0.2	0.71	-0.7	i	-5.3	.
Cc1oc2ccc(OCc3ccccc3F)cc2c1C(=O)O	1.3	3.6	0.64	-2.2	.	.	7%
COc1ccccc1NS(=O)(=O)c1ccc(C(=O)OCC(=O)NCc2ccco2)cc1	2.3	-1.2	0.71	-0.7	.	.	9%
COc1ccc(S(=O)(=O)Nc2cc(Cl)ccc2OC)cc1	-1.3	-6.1	0.66	1.7	.	.	-1%
COC(=O)c1ccc(NC(=O)c2cn(-c3cccc(C)n3)cn2)cc1	.	.	0.7	-1.3	.	.	-6%
CC12CN3CC(C)(CN(C1)C3c1ccccc1)C2O (stereo unspecified)	3.3	1.8	0.69	2.5	i	-13	-13%
O=C(COC(=O)CCC(=O)c1cccs1)Nc1cccc(F)c1	2.7	.	0.66	0.4	i	-0.2	14%
O=C(COC(=O)CNC(=O)c1ccccc1Cl)Nc1cc(C(F)(F)F)ccc1Cl	-0.1	.	0.7	2.5	i	0.3	.
O=C1[C@H]2[C@@H](c3ccc(C(F)(F)F)cc3)N[C@]3(CCCN(CC4CCCCC4)C3=O)[C@H]2C(=O)N1Cc1ccccc1	.	.	.	6.1	i	4.4	5%
CCCn1cnc2cc(NCc3cccc(OC)c3O)ccc21	-9.5	?	0.69	0.4	.	.	3%
CNc1c2cccc(C)c2nc2c(C(=O)NCCN(C)C)cccc12	.	.	.	-126	i	-4.6	.
Cc1ccc(NC(=O)c2cc(=O)[nH]c3ccc(S(=O)(=O)N4CCOCC4)cc23)nc1	4.7	3.3	0.7	4.6	i	5.3	14%
COc1cc(C(=O)NCCOc2ccccc2C)cc(OC)c1OC	-0.1	0.1	0.66	-1.2	i	-2.3	-3%
COc1ccc(NC(=O)CSc2nccn2-c2ccccc2)c(OC)c1	1.7	-0.2	0.78	2.0	.	.	-2%
COc1ccc(S(=O)(=O)N2CCCCC2)cc1NC(=O)c1ccco1	0.2	2.8	0.7	-2.0	i	-0.6	.
Cn1c(=O)[nH]c(=O)c2c1nc(N1CCCC1)n2CCCSc1nnnn1-c1ccccc1	3.4	-4.4	0.74	5.0	i	-19	.
COc1ccccc1C(=O)NCC(=O)NNC(=O)c1cccs1	2.6	.	0.69	1.6	i	-11	.
Cc1ccc(S(=O)(=O)N(C)CC(=O)OCC(=O)N2CCN(c3ccccc3)CC2)cc1	3.0	-1.2	0.73	3.4	i	-1.0	.
COc1ccc(S(=O)(=O)N2CCN(C(=O)c3cccnc3)CC2)cc1OC	7.8	-1.3	0.74	-0.2	i	-10	.
Nc1nonc1-n1nnc(C(=O)N/N=C/c2ccncc2)c1-c1cccs1	.	-2.3	.	1.0	i	-4.0	.
COC(=O)c1cccc(S(=O)(=O)N2CCCCC2)c1	0.8	0.4	0.7	-1.2	.	.	3%
O=C(CSc1nnc2n(C3CCCCC3)c(=O)c3ccccc3n12)OC1CCCCC1	-5.4	-0.2	0.7	0.5	.	.	69%&-14%
O=C(NCc1nnc(SC/C=C/c2ccccc2)o1)c1ccco1	-0.3	?	0.68	0.3	.	.	-1%
COCCn1c(=NC(=O)CSCC(=O)Nc2cc(C)on2)sc2cc(C(=O)OC)ccc21	3.3	.	0.74	-0.8	i	-4.1	-89%
CCOc1ccc(NC(=O)C2CCN(S(=O)(=O)c3ccc4c(c3)N(C(C)=O)CCO4)CC2)cc1	5.7	3.7	0.72	1.9	i	-1.8	0%
COc1ccccc1C(=O)Nc1nnc(S(=O)(=O)N2CCOCC2)s1	5.8	1.0	0.69	-2.9	.	1.3	6%
COCC(=O)Nc1c(I)c(C(=O)NCC(O)CO)c(I)c(C(=O)N(C)CC(O)CO)c1I (stereo unspecified)	1.0	.	0.71	-0.4	i	-2.8	.

An excerpt, so the mix of outcomes need not match the whole.
